VACV Venus inh = qHTS for Stage-Specific Inhibitors of Vaccinia Orthopoxvirus: Venus Reporter Primary qHTS. Vaccinia virus Venus reporter expression, fluorescence. Potency, µM (doses to about 36.5 µM), for inactives: at the highest dose activity change, negative = inhibition, actives largely listed as inhibitors. actives 0.46% (n = 330,000); active means well fitted inhibition curve with a large enough effect; inconclusive means small, poorly fitted or top-dose-only effect; inactive means no such curve, though single readings can be large or run the other way; tested in A549 cells; further: nearly all actives have a fitted effect of over 30% in size; inactives centre near -10
Vaccinia mCherry = qHTS for Stage-Specific Inhibitors of Vaccinia Orthopoxvirus: mCherry Reporter Primary qHTS; actives 0.63% (n = 310,000); Vaccinia virus mCherry reporter infection, fluorescence; about a quarter of the inactives have no number; Potency, µM (top dose mostly 36.5 µM), inactives show at the top dose activity change, negative = inhibition, actives largely listed as inhibitors; active = well fitted inhibition curve with a large enough effect; inconclusive = small, poorly fitted or top-dose-only effect; inactive = no such curve, though single readings can be large or run the other way; tested in A549 cells; further: nearly all actives have a fitted effect of over 35% in size; inactives centre near -10
The depositor's hits bear a star; i = inactive; u = inconclusive; x = not tested or not shown; [ ] = another dose, or the depositor's remark. On the % scale 0 is the no-effect control and ±100 the full control effect; potency means the concentration at half of the fitted maximal effect.

no.	molecule	VACV Venus inh	Vaccinia mCherry
1	CCCOc1ccc(-c2c(C(=O)N/N=C(\C)c3ccncc3)nnn2-c2nonc2N)cc1	10%	u
2	CCOC(=O)C1(CCCc2ccccc2)CCN(C(=O)CN2C(=O)CSC2=O)CC1	-5%	-1%
3	CCN1C(=O)C(CC(=O)Nc2c(C)cccc2C)Nc2cc(S(=O)(=O)N(C)C)ccc21 (centres undefined)	-8%	3%
4	O=C(NCc1cn2ccccc2n1)c1ccco1	6%	-11%
5	COc1ccccc1/C=C/C=N/N1CCN(Cc2ccccc2)CC1	-13%	0%
6	COc1cc(/C=C(/C#N)c2nc3ccccc3[nH]2)ccc1OCc1ccc(C(=O)O)o1	0%	-7%
7	CC1CCN(S(=O)(=O)c2ccc3c(ccn3CC(=O)NCc3ccc(N(C)C)cc3)c2)CC1	-10%	-13%
8	CCNS(=O)(=O)c1ccc(CCC(=O)N2CCN(c3cc(Cl)ccc3C)CC2)cc1	u	u
9	Cc1cc(C)c2cc(CN(CCO)Cc3nnnn3Cc3ccccc3)c(=O)[nH]c2c1	u	x
10	Cc1nc(C)n(CCNS(=O)(=O)c2ccc(C)c(C)c2)n1	-10%	i
11	Cc1nn(C2CCS(=O)(=O)C2)c(C)c1C=O (centres undefined)	-3%	3%
12	Cc1nn(CCOc2ccc(Br)cc2)c(C)c1[N+](=O)[O-]	-12%	i
13	CCOC(=O)c1cc(-c2ccc(OC)cc2)nn1Cc1ccccc1	-6%	-13%
14	O=C(c1ccc(N2C(=O)C3C4CC(C(Br)C4Br)C3C2=O)cc1)N1CCCCC1 (centres undefined)	-11%	-15%
15	COCCN(C(=O)CCC(=O)Nc1ccccn1)C(C(=O)NCCC(C)C)c1ccc(OC)cc1 (centres undefined)	-17%	x
16	O=C(Nc1ccc(OCC(=O)N2CCOCC2)cc1)c1cc(F)c(F)cc1Cl	2%	-13%
17	CN1/C(=C\C=C(/C#N)C(=O)Nc2ccccc2F)C(C)(C)c2ccccc21	0%	i
18	CC(C)c1ccccc1NC(=S)N1CCN(Cc2ccc3c(c2)OCO3)CC1	-6%	-3%
19	COc1ccccc1C1=CC(=O)C[C@H](c2ccc3c(c2)OCO3)C1	-29%	u
20	Cc1ccccc1NC(=O)c1ccc(S(=O)(=O)C(F)F)cc1	-17%	-12%

Reformatted: two of the compounds above.
18) CC(C)c1ccccc1NC(=S)N1CCN(Cc2ccc3c(c2)OCO3)CC1
19) COc1ccccc1C1=CC(=O)C[C@H](c2ccc3c(c2)OCO3)C1
assay / compound	18	19
VACV Venus inh	-6%	-29%
Vaccinia mCherry	-3%	u

Later entries
no.	molecule	VACV Venus inh	Vaccinia mCherry
21	COC(=O)C1C(c2ccc(OC)cc2)C(C(=O)OC)S(=O)(=O)C(CCN2CCCCC2)S1(=O)=O (centres undefined)	-15%	-4%
22	CCC(C)(C)n1nnnc1CN1CCN(c2nc3cc(OC)ccc3cc2C#N)CC1	-20%	-21%
23	COc1ccc(Nc2c3c(nc4c(-c5ccccc5)c(C)nn24)CCC3)cc1	-8%	-6%
24	Cc1ccc(C(=O)NN2C(=O)/C(=C/c3cn(C)c4ccccc34)SC2=S)cc1	1%	-13%
25	O=C1Cc2ccccc2C(=O)N1OCc1ccc(Cl)cc1Cl	1%	i
26	Cc1nn(C)c(C)c1P(=S)(c1c(C)nn(C)c1C)N(C)C	-3%	u
27	O=C(CSc1nc(-c2ccco2)cc(C(F)(F)F)n1)NCc1cccs1	-21%	x
28	Cc1ccc(NC(=O)N2CCN(c3cc(-c4noc(C)n4)ccc3C)CC2)c(F)c1	u	-26%
29	CCOC(=O)c1sc2ccccc2c1OC(=O)c1ccccc1	-28%	x
30	CCC(=O)Nc1cccc(NC(=S)NC(=O)c2cccs2)c1	-3%	-3%
31	COc1cc(/C=C2/C(=N)N3N=C(C)SC3=NC2=O)ccc1OS(=O)(=O)c1ccc(C)cc1	13%	-22%
32	CCCC(=O)Nc1cccc(NC(=O)c2ccc3c(c2)OCCO3)c1	-8%	-13%
33	CCN(CC)c1ccc(C=NCCc2ccc(S(N)(=O)=O)cc2)cc1	-14%	-8%
34	CC1=C(C(=O)OCc2ccccc2)C(c2ccccc2Cl)NC(=O)N1C (centres undefined)	-17%	-1%
35	CC(C)(C)c1nc2c(C#N)c(-c3ccc(Cl)cc3)ccn2n1	-29%	u
36	CCOC(=O)C1=CC[C@@H](c2cc(OC)c(OC)c(OC)c2)N(S(=O)(=O)c2ccc(C)cc2)[C@H]1C(=O)OCC	-14%	u
37	CN(Cc1cccc2cnccc12)C(=O)c1cc(COc2ccc(F)cc2Cl)on1	1%	-12%
38	COc1ccc(C2C(=O)N(C3CCCCCC3)CC(=O)N2Cc2ccc(C)cc2)cc1OC (centres undefined)	-7%	-1%
39	Cc1cc(C(=O)CN2C(=O)c3ccccc3S2(=O)=O)c(C)n1CC1CCCO1 (centres undefined)	-6%	-6%
40	COc1ccc(S(=O)(=O)N2CCC[C@H]2C(=O)N2CCC[C@H]2C(=O)NCc2ccccc2)cc1C	4%	-8%
41	O=C(Cc1csc2ccccc12)NCc1ccc(F)cc1	3%	-4%
42	O=C(CN1C(=O)c2cccc([N+](=O)[O-])c2C1=O)NCc1ccccc1	-4%	i
43	CCOC(=O)c1c(NC(=O)CSC2=NN3CCCC(=O)N=C3S2)sc2c1CCCCC2	-7%	u
44	CCCN1C(=O)SC(CC(=O)Nc2ccccc2C)C1=O (centres undefined)	-20%	x
45	COc1ccc(-n2cc(CNC(C)c3ccncn3)c(-c3cccc(F)c3)n2)cc1 (centres undefined)	-7%	-23%
46	Cc1ccc(NC(=O)CN(C)C(=O)Cn2ccsc2=N)cc1	-16%	-13%
47	O=C(O)Cc1ccc(Oc2ncc(C(F)(F)F)cc2Cl)cc1	1%	-6%
48	O=C(CC1CCCCC1)NCc1ccco1	-20%	i
49	CC(=O)c1cccc(Nc2ccc3cc(S(=O)(=O)N4CCC(C)CC4)ccc3n2)c1	-29%	-24%
50	CC(c1n[nH]c(=S)n1-c1ccc(F)cc1)N1CCCCC1 (centres undefined)	-2%	8%
51	OC(c1ccccc1)c1ncc(-c2ccc(Oc3ccccc3)cc2)[nH]1 (centres undefined)	u	16µM*
52	N#Cc1ccc2c(c1)N(CCCN1CCC(O)CC1)c1ccccc1S2	-11%	-20%
53	COC(=O)C1CSC2c3ccccc3C(=O)N12 (centres undefined)	-19%[7.34 µM]	-13%[7.34 µM]
54	Cc1ccc(NC(=O)Cn2nnc(-c3ccccc3-n3cnnn3)n2)c(C)c1	-3%	-13%
55	O=C(CSc1nc2ncc(Cl)cc2[nH]1)N1CCC(Cc2ccccc2)CC1	-6%	-19%
56	Cc1ccc(N(Cc2ccccc2)C(=O)c2cc(S(=O)(=O)N3CCOCC3)ccc2Cl)cc1	-10%	-22%
57	CC1(C)Oc2ccc3ccc(=O)oc3c2[C@@H](O)[C@@H]1O	4%	-12%
58	OCCNc1ncnc2oc(-c3ccco3)c(-c3ccco3)c12	-11%	-5%
59	COc1ccc(OC)c(-c2noc(CSc3nnc(-c4ccccc4)n3-c3ccccc3)n2)c1	-16%	-14%
60	CCOC(=O)c1[nH]c(C)c(/C(O)=C2\C(=O)C(=O)N(CCCN3CCOCC3)C2c2cccs2)c1C (centres undefined)	-26%	-18%

A different layout for some results above.
Fields – VACV Venus inh	Vaccinia mCherry
#51 OC(c1ccccc1)c1ncc(-c2ccc(Oc3ccccc3)cc2)[nH]1 (centres undefined)
 : u	16µM*
#52 N#Cc1ccc2c(c1)N(CCCN1CCC(O)CC1)c1ccccc1S2
 : -11%	-20%
#53 COC(=O)C1CSC2c3ccccc3C(=O)N12 (centres undefined)
 : -19%[7.34 µM]	-13%[7.34 µM]
#54 Cc1ccc(NC(=O)Cn2nnc(-c3ccccc3-n3cnnn3)n2)c(C)c1
 : -3%	-13%
#55 O=C(CSc1nc2ncc(Cl)cc2[nH]1)N1CCC(Cc2ccccc2)CC1
 : -6%	-19%
#56 Cc1ccc(N(Cc2ccccc2)C(=O)c2cc(S(=O)(=O)N3CCOCC3)ccc2Cl)cc1
 : -10%	-22%

Continued.
no.	molecule	VACV Venus inh	Vaccinia mCherry
61	Cc1cc(C)c(/C=C/c2onc(C)c2S(=O)(=O)N2CCC(C(=O)NCCc3ccccc3)CC2)c(C)c1	-6%[7.34 µM]	-3%[7.34 µM]
62	Cc1ccc(NC(=O)C2CCCN2S(=O)(=O)c2ccc3c(c2)CCCC(=O)N3)cc1C (centres undefined)	-24%	u
63	CCCc1cc(C(=O)Nc2cc(C)on2)no1	-20%	i
64	C=CCn1c(SCc2ccc(C#N)cc2)nnc1-c1cccc(Cl)c1	-2%	x
65	COC(=O)CNC(=O)c1ccc(F)cc1	-2%	-13%
66	CCN(Cc1ccccc1)C(=O)CN1C(=O)COc2ccc(S(=O)(=O)N(CC)CC)cc21	-7%	-9%
67	CSc1nc(N)nc2c1ncn2C1OC(CO)CC1O (centres undefined)	0%	i
68	COC(=O)NC(=C(Cl)Cl)S(=O)(=O)c1ccccc1	u	x
69	c1ccc(COc2ccc(OCCCCN3CCCCC3)cc2)cc1	-25%	-13%
70	Cc1cccc(Nc2nc(N)c([N+](=O)[O-])c(NCc3ccccc3)n2)c1	u	u
71	CC(=O)c1cccc(NC(=O)c2nc(-c3ccccc3)n(-c3ccccc3)n2)c1	-21%	i
72	CCOC(=O)N1CCC(NS(=O)(=O)c2cc(Br)cc3c2N(C(=O)CC)CC3)CC1	-9%	-16%
73	CC1CCCN(Cc2nc3c(c(=O)n(C)c(=O)n3C)n2CC(=O)c2ccccc2)C1 (centres undefined)	0%	i
74	Cc1cc(Br)c2nc(-c3ccccc3)c(Cc3cccc(Cl)c3)n2c1	-6%	-13%
75	CN(C1CCCCC1)S(=O)(=O)c1ccc2c(c1)c(=O)c(C(=O)N1CCN(c3ccc(F)cc3)CC1)cn2C	-25%	-10%
76	O=C(O)Cc1cccnc1C(=O)O	-12%	-7%
77	CS(=O)(=O)N(CC(=O)NC1CCCC1)c1ccc2c(c1)OCCO2	-7%	-13%
78	CC1(C)CC(=O)CC2(C1)NCC(c1ccccc1)c1c2[nH]c2ccccc12 (centres undefined)	-12%	-14%
79	O=C(CSc1nncs1)Nc1ccc(Cl)cn1	0%	-5%
80	CSC(=NCc1ccc(F)cc1)NS(=O)(=O)c1cccs1	-10%	-19%
81	Cc1ccc(OCC(=O)N/N=C\c2ccc(-c3cccc(C(=O)O)c3)o2)c(C)c1	-1%	i
82	O=C(CCC1N=C2c3ccccc3N=C(SCc3cccc(Cl)c3)N2C1=O)N1CCN(c2ccccc2)CC1 (centres undefined)	u	8.9µM*
83	Cc1ccc(-n2c(SCC(=O)NCCN3C(=O)CSC3=O)nnc2-c2ccccc2)cc1	-13%	i
84	O=C(NCc1cccnc1)c1ccc(S(=O)(=O)Nc2ccccc2)cc1	-13%	i
85	COc1ccccc1C1CN(c2ccc(F)cc2F)N=C1c1cccs1 (centres undefined)	-15%	i
86	NC(=O)CC(NC(=O)Cc1ccc(Br)cc1)c1ccc(N2CCC(N3CCCCC3)CC2)c([N+](=O)[O-])c1 (centres undefined)	-2%	i
87	CCOc1cc(C2C(C(=O)OC(C)C)=C(C)N=C3SCCC(=O)N32)ccc1OC(C)=O (centres undefined)	-15%	i
88	COc1ccc2ccccc2c1C1CC(=O)N2CN(Cc3ccco3)CSC2=C1C#N (centres undefined)	0%	u
89	COc1cc2c(c(OC)c1OC)-c1c(cc3c(c1OC)OCO3)C[C@H](C)[C@@](C)(O)C2	-14%	-5%
90	CC(=O)Nc1ccc(S(=O)(=O)NCc2ccc3c(c2)cc(C)n3C)cc1	68%[activator]	-13%
91	COCC(=O)Nc1cc(C(=O)NC2C3CC4CC2CC(O)(C4)C3)cc2nc(-c3ccccc3)n(C)c12 (centres undefined)	-4%	-12%
92	CSc1ncc(/C=C2/C(=O)NC(=O)N(c3ccc(Cl)cc3)C2=O)cn1	-1%	-12%
93	COc1ccc(OC)c(NC(=O)c2c(N3CCCC3=O)c3cc(OC)ccc3n2C)c1	-1%	-10%
94	O=C(CC1C(=O)NCCN1C(=O)Nc1ccccc1)Nc1ccc(F)cc1 (centres undefined)	-7%	i
95	O=C(NNC(=O)c1ccc(-c2ccccc2)cc1)Nc1ccc(F)cc1F	-7%	i
96	O=C(CCc1ccc(S(=O)(=O)N2CCOCC2)cc1)OCC(=O)c1ccccc1	0%	i
97	O=C(O)CSC1=NS(=O)(=O)c2ccccc21	-7%	-5%
98	C=CCn1c(=O)c2c(nc3n2CCS3)n(C)c1=O	-10%	-18%
99	COc1ccc(NS(=O)(=O)c2ccc(C(=O)N(C)Cc3cccs3)cc2)cc1	-11%	-19%
100	CC1CN(c2ccc([N+](=O)[O-])cc2Cl)CCN1S(C)(=O)=O (centres undefined)	-10%	-10%
101	CC(=O)NC(CC(=O)NNC(=O)c1cccs1)c1ccccc1 (centres undefined)	-2%	-22%
102	O=C(Nc1ccc2c(c1)OCO2)c1cc(C2CCCN(C(=O)C3CCCCC3)C2)on1 (centres undefined)	-9%	i
103	CC1(C(=O)NS(=O)(=O)c2cccs2)CCN1C(=O)Cc1ccccc1 (centres undefined)	-3%	9%
104	OC(CNCCc1c[nH]c2ccccc12)C(F)(F)F (centres undefined)	-20%	-11%
105	CSc1nnc(C)c(=O)n1COC(=O)c1ccccc1	12%	-3%
106	CCOc1ccccc1-c1nc(CN2CCCC2c2nccs2)c(C)o1 (centres undefined)	-11%	i
107	Cc1ccc(OCCNC(=O)Cc2ccc(F)cc2)cc1	-6%	i
108	O=C(NCCO)c1nc(C(=O)c2ccc(Cl)cc2)c2ccccc2n1	-6%	-26%

The order is random; overall some 0.88% were active at least once.
